Compound activity (PubChem BioAssay)
D2 ag: Beta-Arrestin HTS for Positive Allosteric Modulators of the Human D2 Dopamine Receptor: Agonists | D(2) dopamine receptor (Homo sapiens), P14416 | DiscoveRx PathHunter D2 beta-arrestin, luminescence, 90 min; 100% = 57 uM dopamine signal | activation, % (test concentration not listed) | 360,000 tested, 0.084% active; in the data active = activation above about 40%; inconclusive = about 15% to 40%; inactive = below about 15%; also: compound concentration not given in the record; the text of the record calls up to 30% inactive
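DiscoveRx PathHunter D2 beta-arrestin cells (2,100/well) attached overnight, then compound-stimulated 90 min at 37 C in HBSS/10 mM HEPES/0.1% Tween-20 buffer; beta-galactosidase complementation read by luminescence after 1 h at ambient temperature. Dopamine 57 uM final (EC100) as control.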
Six1-Eya2 inh: qHTS Assay for Inhibitors of the Six1/Eya2 Interaction | Homeobox protein SIX1 (Homo sapiens) + Protein phosphatase EYA2 (Homo sapiens), … | AlphaScreen GST-Six1/His-Eya2 binding, biochemical; active compounds read low; control for the full effect not named in the record | activity change, % (concentration not given with the values) | 360,000 tested, 0.56% active; in the data active = activity change below about -65%; inconclusive = about -30% to -65%; inactive = above about -30%; also: % is scaled to controls: 0 for no effect and ±100 for the full control effect
Target sequence (O00167 whole entry, looked up): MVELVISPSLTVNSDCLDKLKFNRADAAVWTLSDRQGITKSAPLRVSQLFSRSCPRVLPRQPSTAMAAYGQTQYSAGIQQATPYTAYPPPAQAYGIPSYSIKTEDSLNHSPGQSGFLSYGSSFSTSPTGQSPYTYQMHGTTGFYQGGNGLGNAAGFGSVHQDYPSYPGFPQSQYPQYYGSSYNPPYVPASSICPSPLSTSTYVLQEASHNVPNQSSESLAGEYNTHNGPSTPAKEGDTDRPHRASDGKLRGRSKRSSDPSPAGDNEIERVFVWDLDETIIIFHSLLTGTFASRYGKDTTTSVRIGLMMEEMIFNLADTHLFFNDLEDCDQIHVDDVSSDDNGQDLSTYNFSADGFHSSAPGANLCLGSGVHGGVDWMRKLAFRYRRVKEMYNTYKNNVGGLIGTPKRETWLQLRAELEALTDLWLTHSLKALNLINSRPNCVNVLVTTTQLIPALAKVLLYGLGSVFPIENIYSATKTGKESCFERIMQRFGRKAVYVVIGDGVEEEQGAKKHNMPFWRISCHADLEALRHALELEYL
Target sequence (Q15475 whole entry, looked up): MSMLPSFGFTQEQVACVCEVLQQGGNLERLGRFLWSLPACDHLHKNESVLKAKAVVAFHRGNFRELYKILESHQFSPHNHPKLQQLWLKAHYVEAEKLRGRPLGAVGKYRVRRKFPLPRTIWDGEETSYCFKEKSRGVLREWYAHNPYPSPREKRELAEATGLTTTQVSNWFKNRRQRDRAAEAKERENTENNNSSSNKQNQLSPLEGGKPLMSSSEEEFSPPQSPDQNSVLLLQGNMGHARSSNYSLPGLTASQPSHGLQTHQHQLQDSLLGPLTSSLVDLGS
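Compounds are tested against tagged Six1 and Eya2 proteins bridged by glutathione donor and nickel acceptor beads; after a one-hour incubation at 37 °C without light, AlphaScreen emission is recorded.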
gsp ag: qHTS for Agonist of gsp, the Etiologic Mutation Responsible for Fibrous Dysplasia/McCune-Albright Syndrome: qHTS; gsp mutant cells, cAMP HTRF, 30 min; control for the full effect not named in the record; Potency, µM (highest dose often 76.9 µM), without a hit: top-dose activation (cAMP increase), actives largely listed as activators; 340,000 tested, 0.13% active; AID 624287, 2012; active = well fitted activation curve with a large enough effect; inconclusive = small, poorly fitted or top-dose-only effect, or another doubt; inactive = no such curve, though single readings can be large or run the other way; cell line not stated here;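 also: phosphodiesterase inhibitor Ro 20-1724 added with compounds to block cAMP breakdown; potency is read from the fitted curve at half-maximal effect; nearly all actives have a fitted effect of over 60% in size; about a fifth of the inactives were tested at one dose only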
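Cells stably selected in G418 were plated at 2000/well, grown 16-24 hr, then given compounds in DMSO with the PDE inhibitor […] (300 uM solution added) for 30 min at 37C; cAMP was read by HTRF.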
D2 PAM: Beta-Arrestin HTS for Positive Allosteric Modulators of the Human D2 Dopamine Receptor: Potentiators; DiscoveRx D2 beta-arrestin cells, luminescence, 90 min; 100% = 57 uM dopamine signal; potentiation, % (test concentration not listed); 360,000 tested, 0.23% active; AID 624464, 2012; active = potentiation of 50% or more; inconclusive = 30% to 50%; inactive = 30% or less;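 also: compound concentration not given in the record; tested on top of an EC20 dose of dopamine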
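PathHunter beta-arrestin assay in DiscoveRx D2 cells. Compounds were added with an EC20 of dopamine (50 nM final) for 90 min at 37 deg C. Luminescence was read 1 h after detection reagent, with 57 uM dopamine as the EC100 control.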
gsp antag: qHTS for Antagonists of gsp, the Etiologic Mutation Responsible for Fibrous Dysplasia/McCune-Albright Syndrome: qHTS; gsp-mutant cells, cAMP HTRF, 30 min; control for the full effect not named in the record; Potency, µM (titrated, usually from 76.9 µM), for inactives: at the top dose activity change, negative = inhibition, usual class: inhibitors; 340,000 tested, 0.4% active; AID 624288, 2012; active = falling curve of any shape with a large fitted effect; inconclusive = falling curve, mostly with a smaller effect; inactive = flat or rising curve; cell line not stated here;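 also: intracellular cAMP measured with PDE inhibitor Ro 20-1724 present during compound exposure; potency is read from the fitted curve at half-maximal effect; % is scaled to controls: 0 for no effect and ±100 for the full control effect; nearly all actives have a fitted effect of over 65% in size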
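Cells in G418 medium, seeded 16-24 h, 37C; buffer exchange to DPBS + 1 mM CaCl2, 0.5 mM MgCl2, 0.05% BSA; cpds in DMSO + […] (300 uM stock), 30 min 37C; HTRF cAMP detection.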
CtBP-E1A inh: qHTS Assay for Inhibitors of the CtBP/E1A Interaction; CtBP / adenovirus E1A interaction (AlphaScreen); AlphaScreen GST-E1A/His-CtBP binding, 1536-well; active compounds read low; control for the full effect not named in the record; activity change, % (concentration not given with the values); 340,000 tested, 0.49% active; AID 651724, 2012; in the data active means activity change below about -65%; inconclusive means about -30% to -65%; inactive means above about -30%; also: % is scaled to controls: 0 for no effect and ±100 for the full control effect
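Protein mix (5X: 125 nM each GST-E1A, His-CtBP) was incubated with pinned compound 2 h at 37 deg C in dark, in 50 mM Tris pH 8.0 buffer with 300 mM NaCl. Glutathione donor and nickel acceptor beads followed; AlphaScreen signal read after 1 h.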
Numbers without * were called inactive; ? = inconclusive; . = no result given; [ ] = dose if it differs, or a comment. Compounds as they come; 1.4% or so of the library scored in one or more.

Values run as follows: D2 ag | Six1-Eya2 inh | gsp ag | D2 PAM | gsp antag | CtBP-E1A inh
CCOC(=O)C1CCN(Cc2nc3ccc([N+](=O)[O-])cc3c(=O)n2-c2ccc(OC)cc2OC)CC1
    0.0 | -2 | -1% | -2 | -16% | -1
COc1cccc(N(CC(=O)N2CCOCC2)S(C)(=O)=O)c1
    -6.0 | 11 | -2% | -8 | 9% | .
COc1ccccc1CNC(=O)c1cc(-c2ccc(F)cc2OC)n[nH]1
    4.6 | -9 | . | -4 | . | 0
C/C(CC(=O)Nc1ccc(N(C)C)cc1)=N\NC(=O)c1ccncc1
    -0.7 | -11 | -2%[15.4 µM] | -3 | ? | -5
Cc1ccccc1NC(=O)C(C)Sc1nnc(CN2CCCC2)n1Cc1ccccc1 (centres undefined)
    -5.8 | -4 | 27% | -13 | . | 2
COc1cc(/C=N\NC(=O)c2ccc(-c3ccccc3)cc2)cc(OC)c1O
    0.5 | -11 | 29% | -11 | -9% | -12
O=C(Nc1ccc(N2CCCC2)cc1)c1cc([N+](=O)[O-])ccc1N1CCOCC1
    0.2 | ? | 26% | 5 | -11% | ?
COc1ccc(S(=O)(=O)Nc2ccc(S(=O)(=O)N3CCCCC3)cc2)cc1OC
    -3.6 | 0 | -8% | -9 | -15% | 0
O=S(=O)(NCc1ccccc1Cl)c1ccc(-n2cnnn2)cc1
    -0.6 | 0 | 18%[15.4 µM] | -3 | -21% | 5
COCCNC(=O)/C(C#N)=C/c1cccs1
    -2.4 | 11 | 10%[15.4 µM] | -1 | 9% | 8
COc1ccc(NC(=O)CSc2c(C)nn(-c3nnc(C)c(=O)[nH]3)c2C)cc1
    -1.5 | ? | -11% | 11 | -4% | -25
Cc1cc(NC(=O)CSc2nc3c(sc4ccccc43)c(=O)n2CCCN2CCOCC2)n[nH]1
    -0.3 | 2 | -4% | -7 | 6% | 0
CC(Cc1ccccc1)Nc1ncnc2c1ncn2C1OC(CO)C(O)C1O (centres undefined)
    11 | -3 | . | -3 | -1% | 9
CCCOc1ccc(N2CC(C(=O)Nc3ccc(N4CCOCC4)cc3)CC2=O)cc1 (centres undefined)
    2.7 | 1 | ? | -3 | 11% | 3
Cc1ccc(CN(c2ccc(C(=O)N3CCOCC3)cc2)S(C)(=O)=O)cc1
    0.9 | 12 | 6% | 1 | 8% | -9
O=[N+]([O-])c1ccccc1/C=C/c1ccc2ccccc2n1
    2.0 | -17 | -13% | 1 | -11% | -24
O=C(NCCCCCCCN1CCCCCCC1)C(C1CCCCC1)C1CCCCC1
    -5.9 | 11 | -20% | -29 | 7% | -14
CCc1ccccc1N(CC(=O)Nc1cccc(N(C)S(C)(=O)=O)c1)S(C)(=O)=O
    -0.2 | 3 | -51%[inhibitor] | -1 | -12% | -3
COc1ccc(C(=O)CSc2n[nH]c(=O)[nH]c2=O)cc1
    -4.2 | -1 | -40%[inhibitor] | -5 | -2% | .
COc1ccc(C)c(NC(=O)C2CC(=O)NC3=C2C(=O)CCC3)c1 (centres undefined)
    -1.5 | -13 | 3%[15.4 µM] | -6 | -1% | -2
O=C(OCCN1CCCCC1)c1ccccc1Cl
    -0.7 | 4 | 20% | -32 | 5% | -1
Fc1ccc(NC(=S)NC2CC3CCCC(C2)N3Cc2cccs2)cc1 (centres undefined)
    -4.2 | 2 | -1%[15.4 µM] | -23 | 8% | -1
CC1O[C@H](OC2C(COC3OC(CO)C(O)[C@H](O)C3O)OC(OC3CC[C@]4(C)C(CC[C@@]5(C)[C@@H]4C=C[C@]46OC[C@@]7(CCC(C)(C)C[C@H]74)C(O)C[C@@]56C)C3(C)C)C(O)C2O)C(O)C(O)C1O (some centres undefined)
    -7.5 | 9 | 9% | 2 | 2% | 7
O=C(Nc1ccccc1C(=O)N1CCCCC1)NC1CCCCC1
    -4.2 | -2 | -2%[15.4 µM] | -16 | 5% | 11
CC(=O)NCCC(=O)N(C)CC1CCN(CCc2cccc(C(F)(F)F)c2)CC1
    -2.4 | 2 | -1% | -4 | 5% | 3
Cc1ccc(-c2cc3c(n2-c2ccc(C(=O)O)cc2)CCCC3=O)cc1
    -2.4 | -13 | -25% | 15 | -28% | -19
Cc1ccc(S(=O)(=O)NN2C(=O)c3ccccc3NC2c2ccccn2)cc1 (centres undefined)
    1.0 | 2 | 2%[15.4 µM] | -7 | -4% | -9
Cc1c(N2C(=O)c3ccc4c5c(ccc(c35)C2=O)CC4)c(=O)n(-c2ccccc2)n1C
    6.3 | -8 | ? | 61* | 5% | -11
COc1ccc(Cl)cc1-c1nc(N)nc(N(C)C)n1
    1.5 | 2 | -4% | 3 | 12% | 6
O=C(NCC(c1ccco1)N1CCCC1)c1ccccc1F (centres undefined)
    -4.8 | 2 | -4% | -6 | ? | 1

Whole records as entered above. Order of values: D2 ag | Six1-Eya2 inh | gsp ag | D2 PAM | gsp antag | CtBP-E1A inh
Entry for Cc1ccc(S(=O)(=O)NN2C(=O)c3ccccc3NC2c2ccccn2)cc1 (centres undefined) = 1.0 | 2 | 2%[15.4 µM] | -7 | -4% | -9
Entry for Cc1c(N2C(=O)c3ccc4c5c(ccc(c35)C2=O)CC4)c(=O)n(-c2ccccc2)n1C = 6.3 | -8 | ? | 61* | 5% | -11
Entry for COc1cc(/C=N\NC(=O)c2ccc(-c3ccccc3)cc2)cc(OC)c1O = 0.5 | -11 | 29% | -11 | -9% | -12
Entry for CC1O[C@H](OC2C(COC3OC(CO)C(O)[C@H](O)C3O)OC(OC3CC[C@]4(C)C(CC[C@@]5(C)[C@@H]4C=C[C@]46OC[C@@]7(CCC(C)(C)C[C@H]74)C(O)C[C@@]56C)C3(C)C)C(O)C2O)C(O)C(O)C1O (some centres undefined) = -7.5 | 9 | 9% | 2 | 2% | 7

Next entries follow.
Values run as follows: D2 ag | Six1-Eya2 inh | gsp ag | D2 PAM | gsp antag | CtBP-E1A inh
COC(Cn1c2c(c3cc(C)ccc31)CCCC2NCc1ccccc1)OC (centres undefined)
    -8.8 | -12 | -9% | -15 | -2% | .
CCc1ccc(OC)c(S(=O)(=O)Nc2ccc(Cc3ccncc3)cc2)c1
    4.2 | -3 | 0% | -12 | ? | -1
CC(=O)c1cccc(NC(=O)NNC(=O)CCC(=O)Nc2ccc(C)c(C)c2)c1
    -2.9 | -3 | -8%[15.4 µM] | -11 | . | -16
O=C(CCS(=O)(=O)c1ccc(Br)cc1)Nc1ccccn1
    -1.8 | 10 | 3% | -4 | -3% | 1
Cc1oc2c(c(=O)c1C)C(=O)CC(c1ccccc1)C2 (centres undefined)
    0.5 | 13 | 2% | 7 | -2% | 11
O=C(N/C=N/O)C1=NOC(CNc2ncc(C(F)(F)F)cc2Cl)C1 (centres undefined)
    1.8 | 7 | -8% | 5 | 9% | -4
COc1ccccc1C(=O)N/C(=C\c1ccccc1)C(=O)NCc1ccco1
    0.7 | -6 | -5%[15.4 µM] | -2 | -18% | 1
CCn1cc(C(=O)O)c(=O)c2cc(F)c(N3CCN(C(=S)Nc4ccccc4OC)CC3)cc21
    -2.9 | 2 | -37%[inhibitor] | -16 | -28% | .
COc1ncnc2c1ncn2CCCN(C)CCc1ccccn1
    -2.8 | 1 | -35% | 1 | . | -10
O=C(CNc1ccc(F)cc1)N/N=C/C1CC=CCC1 (centres undefined)
    -1.8 | 4 | 1% | 0 | 11% | 4
CC1CCCCC1NC(=O)CN1C(=O)c2ccccc2S1(=O)=O (centres undefined)
    -3.9 | 3 | 20% | -14 | 6% | 6
Cc1ccccc1OCc1nc(-c2cccnc2)no1
    0.0 | 2 | -2% | 0 | 1% | -21
COc1ccc(C(=O)Cn2nnc(-c3ccccc3-n3cnnn3)n2)cc1
    0.2 | -1 | -22% | -4 | -2% | -2
CC1CCCC(C)N1C(=O)CSc1nnc(COc2ccc(F)cc2)o1 (centres undefined)
    0.5 | 1 | -7%[15.4 µM] | -7 | -6% | 21
Cc1cccc(-c2noc(CN(C)C(=O)COc3ccccc3)n2)c1
    -3.0 | 6 | 11% | -14 | -22% | 0
O=c1[nH]c2ccccc2cc1-c1nnn(-c2ccc(F)cc2)n1
    -2.4 | 15 | -41%[inhibitor] | -6 | -8% | -22
C[C@@H]1CN([C@@H](C)CO)S(=O)(=O)c2ccc(Br)cc2O[C@H]1CN(C)C(=O)Cc1cccnc1
    -8.4 | -1 | -26% | 3 | . | 4
CSCCC(NC(=O)c1ccccc1Cl)C(=O)N1CCN(C(c2ccccc2)c2ccccc2)CC1 (centres undefined)
    -5.4 | -19 | -35% | -18 | -29% | -13
CN(C)c1ccc(-c2cc([C@H]3[C@@H]4C=CCC[C@@]4(C)C(=O)N3Cc3ccccc3)ccc2F)cc1
    -4.0 | ? | . | -8 | -12% | ?
CCOC(=O)c1nn(-c2ccc(C)cc2)c(=O)cc1OCC(=O)Nc1cccc(OC)c1
    1.6 | -2 | 2% | -9 | 6% | 10
CN(CC(=O)Nc1ccc(OC(F)(F)F)cc1)C(=O)Cc1cccs1
    -1.3 | 0 | 21% | -16 | 3% | .
O=C(N/N=C/C=C/c1ccco1)/C(=C/c1ccccc1)NC(=O)c1ccccc1
    -3.7 | -11 | -13%[15.4 µM] | -7 | 0% | 4
Cc1c(Cc2ccccc2)sc(NC(=O)C(C)(C)C)c1C(N)=O
    1.0 | -7 | -3% | -8 | -3% | .
Cc1nnc(NC(=O)CSc2nc(CC(C)C)nc3c2c(=O)n(C)c(=O)n3C)s1
    -0.7 | -1 | -3%[15.4 µM] | -4 | 7% | -4
Cc1ccc(CN(CC2CCCO2)C(=O)CN2C(=O)C(C(C)C)Oc3ccccc32)o1 (centres undefined)
    -3.9 | -7 | -15% | -13 | -14% | -11
O=C(NC1CC1)c1cccc(NC(=O)C2CCCC2)c1
    -1.0 | 5 | . | . | 10% | 6
Cc1cc(NC(=O)c2c(-c3c(F)cccc3Cl)noc2C)no1
    -5.0 | -2 | 2% | -15 | 1% | .
COc1ccc(C(=O)NC2CCN(C(=S)Nc3cccc(C)c3C)CC2)cc1
    -0.4 | 5 | -5% | 0 | 0% | 7
COC(=O)Cc1nnc(NC(=O)C(C)C)s1
    -2.8 | -1 | -70%[inhibitor] | -18 | 3% | 9
COc1ccc(NC(=O)/C(=C/c2cccnc2)NC(=O)c2cccs2)cc1
    -0.6 | 7 | -13% | 5 | -16% | 1
